Source: PubChem
Vaccinia Venus – qHTS for Stage-Specific Inhibitors of Vaccinia Orthopoxvirus: Venus Reporter Primary qHTS. AID 720580, 2013. Potency, µM (titrated, usually from 36.5 µM), for the others: top-dose activity change, negative = inhibition, usual class: inhibitors. Vaccinia virus Venus reporter expression, fluorescence. hit rate 0.46% among 330,000; active means well fitted inhibition curve with a large enough effect; inconclusive means small, poorly fitted or top-dose-only effect; inactive means no such curve, though single readings can be large or run the other way; tested in A549 cells; also: nearly all actives have a fitted effect of over 30% in size; inactives centre near -10
VACV mCherry inh – qHTS for Stage-Specific Inhibitors of Vaccinia Orthopoxvirus: mCherry Reporter Primary qHTS; Vaccinia virus mCherry reporter infection, fluorescence; about a quarter of the inactives have no number; Potency, µM (top dose mostly 36.5 µM), without a hit: at the highest dose activity change, negative = inhibition, hits mostly inhibitors; hit rate 0.63% among 310,000; active = well fitted inhibition curve with a large enough effect; inconclusive = small, poorly fitted or top-dose-only effect; inactive = no such curve, though single readings can be large or run the other way; tested in A549 cells; also: nearly all actives have a fitted effect of over 35% in size; inactives centre near -10
* hit, by the source's call; i = inactive; ? = inconclusive; · = no result given; & = joins results of further samples; [ ] = another dose, or the depositor's remark. % is scaled to controls: 0 for no effect and ±100 for the full control effect; potency is read from the fitted curve at half-maximal effect.

SMILES	Vaccinia Venus	VACV mCherry inh
Cc1ccc2nc(N(CCCN(C)C)C(=O)c3ccc4c(c3)CCCC4)sc2c1	?	?
COC(=O)c1cc(C#N)c(SCc2ccccc2)nc1C	0%	i
CCN1CCN(c2csc3ccc(Br)cc3c2=O)CC1	-21%	-25%
Cn1c(CNC(=O)c2ccco2)nnc1SCC(=O)Nc1cccc(F)c1	2%	i
COc1ccc(N2C(=O)C3CCCN3C2c2ccccc2F)cc1 (stereo not given)	-12%	-15%
c1cc2c(cc1-c1cnc3n1CCC3)OCCO2	?	?
CCOc1ccc(NCc2cccn2-c2nnc(N3CCC(C(=O)NCCOC)CC3)s2)cc1	-6%	-6%
O=S1(=O)c2ccccc2N(Cc2ccc(Cl)cc2)c2ccccc21	-11%	-7%
CN(C)C(=O)COC(=O)c1ccccc1OCC(=O)Nc1ccc(SC(F)F)cc1	-10%	i
CCn1cc(C(=O)N2CCN(c3ccc(F)cc3)CC2)c2cc(OC)c(OC)cc2c1=O	-14%	-2%
Cc1nn(-c2ccc(F)cc2)c(-n2cccc2)c1C(=O)N1CCCCC1C (stereo not given)	1%	1%
O=C1C2C3c4ccccc4C(c4ccccc43)C2C(=O)N1Cc1cccnc1 (stereo not given)	-1%	-5%
COc1ccc(NC(=O)c2ccc(COc3ccc(C)cc3)o2)cc1	-9%	-5%
CC(C)(c1ccc(OCC2CO2)cc1)c1ccc(OCC2CO2)cc1 (stereo not given)	?	?
CCOC(=O)Cc1c(Sc2ccccc2)c2cc(C)ccc2n1C	0%	-10%
C[C@@]12C(=O)NCC(=O)N1[C@@H]1c3cc(Br)ccc3OC[C@@H]1[C@@H]2c1ccccc1	-23%	i
Cc1nnc(SCC(=O)Nc2cccc(C(F)(F)F)c2)n1Cc1ccco1	-20%	-16%
CCC(C(=O)Nc1c(C)cccc1C)n1c(-c2ccc(=O)[nH]c2)nc2ccccc21 (stereo not given)	1%	i
Cc1ccccc1C(=O)NNC(=O)/C=C/c1ccccc1	-15%	i
Cc1ccc(C(=O)O)cc1NCc1cccnc1	-14%	i
CCc1ccc2nc(N(CCCN(C)C)C(=O)c3ccc(S(=O)(=O)N(C)C4CCCCC4)cc3)sc2c1	62%[activator]	?
Cc1nn(CC(=O)NC(=O)NC2CCCC(C)C2C)c(=O)c(C#N)c1C (stereo not given)	-5%	-18%
COc1ccc([C@H]2CC(=O)C=C(c3ccccc3-c3ccccc3)C2)cc1	-29%	-13%
Nc1ncnc2c1ncn2C1OCC(O)C1O (stereo not given)	2%	-2%
CC(C)CCn1nnnc1CN1CCN(c2ccc(F)cc2)CC1	-1%	-14%
COc1ccc(C(=O)NNC(=O)CN2CCC(n3nnc4cc(C)ccc43)CC2)cc1	-12%	-10%
Cc1ccc(N2C(=O)NC(=O)/C(=C\c3cnc(-c4ccccc4)nc3)C2=O)cc1	4%	-11%
CN1OC[C@@H]2CN(Cc3ccc4c(c3)OCO4)[C@H](c3ccc(N4CCCCC4)cc3)C[C@@H]21	6%	i
O=C(NC1CCCC1)C1C(c2ccccc2)=Nc2ccccc2N1C(=O)c1ccc(C(F)(F)F)cc1 (stereo not given)	11%	-18%
COc1ccccc1CNC(=O)c1cc(-c2cc(F)ccc2OC)n[nH]1	-6%	i
Cc1c(C(=O)N2CCN(c3ccc(F)cc3)CC2)sc2nc3n(c(=O)c12)CCC3	-3%&0%	-1%&-9%
N#CC1=C(N)NC(SCC(=O)c2ccc(Br)cc2)=C(C#N)C12CCCCC2	-29%	?
C=CCOC(=O)C1=C[C@H](c2cn(C(C)=O)c3ccccc23)[C@@H](CCCO)[C@H](OCC)O1	0%	?
COc1ccc(/C=N/OC/C(O)=C(\C#N)c2nc3ccccc3[nH]2)cc1OC	-8%	-14%
CN1CCN(CCCNC(=S)Nc2ccc(F)c(Cl)c2)CC1	-2%	-8%
COc1ccc(Cl)cc1NC(=O)COC(=O)c1cc(NS(=O)(=O)c2cccs2)ccc1O	-8%	-18%
O=C(Nc1cn(-c2ccccc2)nc1-c1ccccc1)c1ccccc1	-10%	-12%
CC(C)c1nnc(NC(=O)C2CCCN2C(=O)Nc2cccc(Cl)c2)s1 (stereo not given)	1%	i
Cc1ccc(-c2cc(C(=O)O)n(-c3ccc(S(N)(=O)=O)cc3)n2)cc1	2%	i
CCCN(Cc1cc2cc(OC)ccc2[nH]c1=O)C(=O)c1ccncc1	?	?
CC1CCN(S(=O)(=O)c2ccc(NC(=O)CN3CCCC3)cc2)CC1	-6%	-14%
Cc1nc2c(-c3ccc(F)cc3)c(C)nn2c(N2CCOCC2)c1C	-29%	-11%
Cc1nn2c(NC(C)C)c3c(nc2c1-c1ccccc1)CCC3	-21%	-8%
O=S1(=O)N=C(N(CCO)/N=C/C=C/c2ccccc2)c2ccccc21	?	?
COCCN(C(=O)COC(=O)C12CC3CC(CC(O)(C3)C1)C2)c1c(N)n(Cc2ccccc2)c(=O)[nH]c1=O	0%	-8%
CN(C)CCCN(C(=O)COc1ccccc1)c1nc2ccc(Cl)cc2s1	-20%	?
Cc1cc(/C=C2/SC(=S)N(c3cccc(Cl)c3)C2=O)c(C)n1-c1cccnc1	?	?
Cc1nn(Cc2c(Cl)cccc2Cl)c(C)c1NC(=O)c1sc2ccccc2c1Cl	-24%	?
O=C(Nc1ccc(Cl)cc1)C1CCN(C(=O)c2ccco2)CC1	?	-4%
CCc1ccc(-c2nn(-c3ccccc3)cc2CSC(=N)N)cc1	11µM*	?
CCOc1ccc(N(CC(=O)N2CCCC2)S(=O)(=O)c2c(C)noc2C)cc1	-4%	35%[activator]
COc1ccc(C(C)=O)cc1CN1CCCCC1	-10%	-17%
Cn1c(SCC(=O)c2ccccc2)nnc1C1COc2ccccc2O1 (stereo not given)	-11%	-2%
O=C(C1CCN(S(=O)(=O)c2ccc(-n3cnnn3)cc2)CC1)N1CCCCC1	-7%	-10%
CN(C)CCCNc1cn[nH]c(=O)c1Cl	2%	-9%
COc1ccccc1-c1sc2ccccc2c1C#CC1(O)CCCCC1	-19%	-15%
CCOc1ccccc1N(CC(=O)NCCc1ccc(OC)c(OC)c1)S(=O)(=O)c1ccccc1	-14%	-10%
O=C(N/N=C/c1ccco1)c1cc(-c2ccccc2)n[nH]1	6%	-12%
CSc1cccc(NCc2ccc([N+](=O)[O-])cc2)c1	-15%	-12%
Cc1nc(S(=O)(=O)Nc2ccccc2C(=O)NCC2CC2)cn1C	-10%	i

(next part)
SMILES	Vaccinia Venus	VACV mCherry inh
Oc1ccc(/C=N/Nc2ccc(C(F)(F)F)cn2)cc1O	?	10µM*
CCc1ccc(/C=C2\SC(=S)N(CCCC(=O)Nc3cc(C)on3)C2=O)cc1	-9%	i
CCCN1CCC(NC(=O)Nc2cccc3ccccc23)CC1	-16%	?
Cc1c(C(=O)N2CCN(c3ccccc3)CC2)sc2nc3n(c(=O)c12)CCC3	-6%	-12%
CCOC(=O)[C@]12Cc3ccccc3[C@H]1N(Cc1ccccc1)C(=O)c1cc(F)c(F)cc12	-13%	-15%
Cc1cc(C(=O)N2CCCC(CO)(Cc3ccc(F)cc3F)C2)nn1C (stereo not given)	-7%	-24%
O=C(N/C(=C\c1ccc([N+](=O)[O-])cc1)C(=O)N1CCCCC1)c1ccccc1	-7%	i
Cc1nc(N2CCCCC2)c2sc(=S)n(C)c2n1	-6%	-11%
O=C(c1cccnc1NCc1ccccc1)N1CCOCC1	-20%	-4%
Cc1ccc(NCc2ccc([N+](=O)[O-])s2)cc1	-10%	i
COc1cc2c(NC3CCN(C)CC3)nc(N3CCCN(C)CC3)nc2cc1OCCCCCN(C)C	13µM*	?
O=C(C1CCCN(S(=O)(=O)c2cnc[nH]2)C1)N1CCN(c2ccc(Cl)cc2)CC1 (stereo not given)	-12%	3%
Cc1c(N=C/C=C2\N(C)c3ccccc3C2(C)C)c(=O)n(-c2ccccc2)n1C	-25%	-2%
COCCNC(=O)C1CCN(S(=O)(=O)c2ccccc2)CC1	-6%	-10%
CN(C)c1ccc(CNC(=O)CCCN2C(=O)CCn3nc(-c4cccn4C)cc32)cc1	14%	-3%
O=c1cc(CSc2nnnn2-c2ccc(O)cc2)nc2sccn12	3%	-27%
O=C(CC[C@H]1O[C@@H](n2cnc3c(NC(=O)c4ccccc4)ncnc32)[C@H](O)[C@@H]1O)NCc1cccs1	-2%	10%
CCC1CCCCN1C(=O)c1ccc2c(c1)N(Cc1cccc(Cl)c1)C(=O)c1ccccc1S2(=O)=O (stereo not given)	-9%	-9%
O=C(CN1C2CCCC1CC(NC(=O)c1ccco1)C2)Nc1ccccc1 (stereo not given)	-5%	·
CCOC(=O)c1cc(-c2ccccc2)sc1NC(=O)C(C)Sc1nnnn1C (stereo not given)	-22%	-26%
C[C@@H]1CCC[C@]2(O[C@@H](CCO)C[C@H](O)[C@H]2O)O1	-12%	i
c1ccc2oc(-c3[nH]ncc3CN3CCSCC3)cc2c1	-13%	-12%
O=C(Nc1cccc(S(=O)(=O)N2CCCC2)c1)c1cc(S(=O)(=O)N2CCOCC2)ccc1F	-13%	-8%
Cc1cc(C(=O)N2CCCC(C(=O)c3ccc4ccccc4c3)C2)n(C)n1 (stereo not given)	-11%	i
Cc1cc(C)c2cc(C#N)c(N3CCCN(C(=O)c4cnccn4)CC3)nc2c1	-10%	i
COc1ccc(C(=O)c2ccc(Cl)cc2)c(OC)c1OC	-11%	-16%
COc1ccc(-c2noc(CSc3nnc(-c4ccncc4)n3-c3cccc(C)c3)n2)cc1OC	?	-10%
CN(C(=O)COC(=O)c1ccc2ccccc2n1)c1ccccc1	-17%	i
Nc1nc(NCCc2ccccc2)c2[nH]cnc2n1	-20%&-16%	-10%&-19%
COc1cccc(C2(c3cccc(OC)c3)CC2C(=O)Nc2ccc(F)cc2)c1 (stereo not given)	-17%	-25%
CC(C)(C)C(=O)CSc1nc2ccccc2o1	-10%	i
CC(C)c1cc(C(C)C)n2nc(N)nc2n1	-2%	i
CC1CCN(S(=O)(=O)c2cccc(C(=O)Nc3ccccc3)c2)CC1	-8%	-29%
COc1ccc(/C=C(\NC(=O)/C=C/c2ccco2)C(=O)NCCc2nc3ccccc3[nH]2)cc1	-13%	-21%
Cc1cc(N2CCN(C)CC2)nc2ccc(NC(=O)c3cccnc3Cl)cc12	-16%	-14%
CCOC(=O)N1CCN(C(=O)c2ccc(CS(=O)(=O)c3ccc(OC)cc3)o2)CC1	-3%	10%
Cn1cccc1C1CCCN1CC(=O)Nc1ccc(C#N)c(Cl)c1 (stereo not given)	-8%	-9%
NC(=O)C1CCN(C(=O)c2cccc(CN3C(=O)c4ccccc4C3=O)c2)CC1	-3%	-10%
Cc1ccc(Oc2c(F)c(F)nc(N3CCCC3)c2F)cc1	-7%	-14%
CC(C)C(=O)Nc1nnc(CCc2ccccc2)s1	-26%	i
CC(=O)NCCNc1nc(-c2ccc(N(C)C)cc2)nc2ccccc12	0%	-1%
COc1cc(/C=N/n2cnc3c(sc4nc(C)cc(C)c43)c2=O)ccc1O	-4%	i
COc1ccc(-c2ccc(CN3C(C(C)C)C(=O)N(Cc4cn(Cc5ccco5)nn4)CCS3(=O)=O)cc2)cc1 (stereo not given)	?	?
CCOC(=O)C1CCCN(S(=O)(=O)c2cc(-c3onc(C)c3C)ccc2OC)C1 (stereo not given)	-7%	-11%
Cn1cc(C(=O)N2CCCCC2)c2ccccc21	-8%	i
Cc1ccc(C2(CCNCc3ccco3)CCOC(C(C)C)C2)cc1 (stereo not given)	-7%[7.34 µM]	-5%[7.34 µM]
Cn1cc(Cl)c(C(=O)NNC(=S)Nc2cccc(Cl)c2)n1	3%	-8%
C#CCn1cc(/C=N/NC(=O)c2cc3ccccc3o2)c2ccccc21	14%	-24%
Cc1ccc(CNC(=O)c2sc3ncnc(N(C)C4CCCCC4)c3c2C)cc1	-15%	-9%
COc1ccc2c(c1)[C@H]1[C@H](CO2)[C@H](c2ccccc2)[C@]2(C)C(=O)Nc3cc(Cl)ccc3C(=O)N12	?	-9%
N#CC1=C(SCc2ccccc2)NC(=O)C(C#N)C12CCCC2 (stereo not given)	?	·
COc1cc([N+](=O)[O-])cc(/C=N/NC(=O)C(O)(c2ccccc2)c2ccccc2)c1O	-12%	-16%

No enrichment for hits, and some 0.82% of all compounds hit somewhere here.
